Assay outcomes from PubChem.
Yeast UUG start: modulators of start codon recognition fidelity in yeast | 350,000 tested, 0.13% active | S. cerevisiae UUG-firefly luciferase reporter, luminescence/redox ratio | activity score, % at 18.7 µM;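 active = replicate mean at a twofold rise or more, about +100% in these data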;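 also: firefly luciferase made from a UUG start codon reports start codon fidelity; reporter light over untreated wells divided by growth signal over untreated wells; some hits fall short of that in this replicate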
The depositor's hits bear a star; & = joins results of further samples.

smiles | Yeast UUG start
Cc1ccc(S(=O)(=O)N(C)C[C@H]2Oc3ccc(NC(=O)CCN4CCOCC4)cc3CC(=O)N([C@H](C)CO)C[C@@H]2C)cc1 | 20
C[C@H](CO)N1C[C@H](C)[C@H](CN(C)S(=O)(=O)c2cccs2)Oc2ccc(NC(=O)CCCCCC(=O)Nc3ccccc3N)cc2C1=O | -5
C/C=C/c1ccc([C@@H]2[C@@H](CO)N(C(C)=O)[C@H]2CN(CCC)C(C)=O)cc1 | -3&2
O=C(C[C@@H]1CC[C@@H]2[C@H](COC[C@H](O)CN2C(=O)c2ccc3c(c2)OCO3)O1)NC1Cc2ccccc2C1 | -6
Cc1cccc(S(=O)(=O)N(C)C[C@@H]2OCc3ccccc3-c3ccccc3C(=O)N([C@H](C)CO)C[C@@H]2C)c1 | 11
Cc1noc(C)c1NC(=O)N(C)C[C@@H]1Oc2c(NC(=O)Nc3cccc4ccccc34)cccc2C(=O)N([C@H](C)CO)C[C@@H]1C | 0
CCC(=O)N1[C@H](CO)[C@@H](c2ccc(-c3ccc(F)cc3)cc2)[C@@H]1CNC(C)=O | -3
Cc1ccc(S(=O)(=O)N2CC[C@@H]3[C@H](CO)Nc4ccc(C#Cc5ccccc5F)cc4[C@@H]32)cc1 | -16

Remaining list, next part
smiles | Yeast UUG start
C[C@@H](O)C#Cc1ccc([C@@H]2[C@H](CO)N3CCCCN(C(=O)Nc4ccccc4)C[C@@H]23)cc1 | 17
O=C(NC[C@@H]1N[C@@H](CO)[C@@H]1c1ccccc1)C1CC1 | 1
C[C@H](CO)N1C[C@H](C)[C@H](CN(C)Cc2ccc(C(F)(F)F)cc2)Oc2ccc(NC(=O)Nc3ccc(F)cc3)cc2C1=O | 7
COC(=O)C[C@H]1CC[C@@H]2[C@H](COc3ccc(NC(=O)Nc4c(C)noc4C)cc3C(=O)N2C)O1 | -8
O=C(C[C@@H]1CC[C@H]2[C@@H](COC[C@@H](O)CN2C(=O)c2ccc(F)cc2)O1)NCCCN1CCOCC1 | 22
Cn1cnc(S(=O)(=O)N2CCCCN3[C@H](CO)[C@H](c4ccc(C5=CCCC5)cc4)[C@@H]3C2)c1 | -1
O=C(C1CCC1)N1C[C@H]2[C@@H](c3ccccc31)[C@@H](CO)N2C(=O)c1ccccc1 | 12
O=C(Nc1ccccc1F)N1C[C@@H]2[C@H](c3ccccc31)[C@H](CO)N2C(=O)C1CC1 | 1

Remaining list, next part:
smiles | Yeast UUG start
CC(=O)N(C[C@@H]1N[C@@H](CO)[C@H]1c1ccc(-c2ccc(F)cc2)cc1)C(C)C | -4
OC[C@@H]1[C@@H](c2ccc(-c3ccc(F)cc3)cc2)[C@@H]2CN(Cc3cccnc3)CCCCN12 | -15
COCCNC(=O)C[C@H]1CC[C@H]2[C@H](COc3ccc(NC(=O)C4CCOCC4)cc3C(=O)N2C)O1 | -4
C[C@@H]1CN([C@@H](C)CO)C(=O)c2cc(NC(=O)Cn3cnnn3)ccc2O[C@H]1CN(C)S(=O)(=O)c1cn(C)cn1 | 16
CN(C)C(=O)c1ccc(-c2ccc([C@H]3[C@@H](CO)N4CCCCN(C(=O)C5CCCC5)C[C@@H]34)cc2)cc1 | 8
CO[C@@H]1CN(C)C(=O)c2ccc(NC(=O)C3CC3)cc2OC[C@H](C)N(C(=O)NC(C)C)C[C@@H]1C | -5
CN(C)CC(=O)N1CCCCN2[C@@H](CO)[C@@H](c3ccc(-c4cncnc4)cc3)[C@@H]2C1 | -14
CO[C@H]1CN(C)C(=O)c2ccc(NC(=O)Nc3ccccc3)cc2OC[C@H](C)N(C(=O)Nc2c(C)noc2C)C[C@H]1C | 7

New compounds follow
smiles | Yeast UUG start
COc1cccc(NC(=O)N2[C@@H](CO)[C@@H](c3ccccc3)[C@@H]2CNCC(C)C)c1 | -5
COc1ccc(-c2ccc3c(c2)[C@@H]2[C@@H](CCN2C(=O)c2cccc(F)c2)[C@H](CO)N3C)cc1 | 4
CC(=O)NC[C@H]1[C@@H](c2ccccc2)[C@@H](CO)N1C(=O)Cc1ccncc1 | -10
C[C@@H]1CN([C@@H](C)CO)C(=O)c2cccc(NC(=O)c3nc4ccccc4s3)c2O[C@H]1CN(C)C(=O)NC1CCCCC1 | 10
COc1ccc(NC(=O)N(C)C[C@@H]2OCc3cnnn3CCCC(=O)N([C@@H](C)CO)C[C@@H]2C)c(OC)c1 | 5
O=C(C[C@@H]1CC[C@@H]2[C@H](COC[C@@H](O)CN2Cc2cc(F)cc(F)c2)O1)NCc1cccc(F)c1 | -12
COCC(=O)Nc1ccc2c(c1)OC[C@H](C)N(Cc1ccccc1F)C[C@@H](C)[C@H](OC)CN(C)C2=O | -6
O=C(C[C@@H]1CC[C@@H]2[C@H](COC[C@@H](O)CN2CCc2ccccc2)O1)N1CCC(Cc2ccccc2)CC1 | 7

Entries listed so far that have an aryl methoxy group (3):
smiles | Yeast UUG start
COc1cccc(NC(=O)N2[C@@H](CO)[C@@H](c3ccccc3)[C@@H]2CNCC(C)C)c1 | -5
COc1ccc(-c2ccc3c(c2)[C@@H]2[C@@H](CCN2C(=O)c2cccc(F)c2)[C@H](CO)N3C)cc1 | 4
COc1ccc(NC(=O)N(C)C[C@@H]2OCc3cnnn3CCCC(=O)N([C@@H](C)CO)C[C@@H]2C)c(OC)c1 | 5

More compounds follow:
smiles | Yeast UUG start
O=C(NC[C@@H]1[C@@H](c2ccccc2)[C@H](CO)N1C(=O)Cc1cccnc1)C1CC1 | 2
C[C@@H]1CN([C@@H](C)CO)C(=O)c2cc(NC(=O)C3CC3)ccc2O[C@H]1CN(C)Cc1ccc(-c2ccccc2)cc1 | -5
CCC(=O)Nc1ccc2c(c1)OC[C@H](C)N(Cc1cccnc1)C[C@@H](C)[C@H](OC)CN(C)C2=O | -12
CO[C@@H]1CN(C)C(=O)c2cc(NC(C)=O)ccc2OC[C@H](C)N(CC2CC2)C[C@@H]1C | -5
C[C@@H]1CN([C@@H](C)CO)C(=O)c2cccc(N(C)C)c2O[C@H]1CN(C)C(=O)Nc1ccccc1 | -10
C[C@@H]1CN([C@H](C)CO)C(=O)CCCn2cc(nn2)CO[C@@H]1CN(C)C(=O)Nc1ccc(-c2cccs2)cc1 | 22
CO[C@H]1CN(C)C(=O)c2cc(NC(=O)C3CCC3)ccc2OC[C@@H](C)N(Cc2nccs2)C[C@H]1C | -8
Cc1ccc(S(=O)(=O)Nc2cccc3c2O[C@@H](CN(C)C(=O)Nc2ccc4c(c2)OCO4)[C@@H](C)CN([C@H](C)CO)C3=O)cc1 | 9

Other results follow.
smiles | Yeast UUG start
Cc1noc(C)c1NC(=O)Nc1cccc2c1O[C@@H](CN(C)S(=O)(=O)c1cccs1)[C@@H](C)CN([C@H](C)CO)C2=O | 4
C[C@@H]1CN([C@@H](C)CO)C(=O)c2cc(NC(=O)c3ccncc3)ccc2O[C@H]1CN(C)Cc1ccc(C(=O)O)cc1 | -12
COc1ccc(S(=O)(=O)N2CCCCN3[C@H](CO)[C@@H](c4ccc(-c5cccnc5)cc4)[C@H]3C2)cc1 | -13
O=C(Nc1ccccc1F)N1C[C@H]2[C@@H](c3ccccc31)[C@H](CO)N2C(=O)c1ccccc1F | 6
C[C@H](CO)N1C[C@H](C)[C@H](CN(C)C)Oc2ccc(NC(=O)CCC(F)(F)F)cc2C1=O | -9
CO[C@H]1CN(C)C(=O)c2ccc(NC(=O)C3CC3)cc2OC[C@H](C)N(C(=O)Cc2ccccn2)C[C@H]1C | 5
Cc1ccc(S(=O)(=O)N2C[C@@H](O)COC[C@H]3O[C@H](CC(=O)N[C@@H]4CCN(Cc5ccccc5)C4)CC[C@@H]32)cc1 | 5
COc1ccc(CNC(=O)C[C@H]2C[C@H]3c4cc(NS(=O)(=O)c5ccc(F)cc5)ccc4O[C@H]3[C@H](CO)O2)cc1 | 36

(more compounds)
smiles | Yeast UUG start
CN(C[C@H]1N[C@@H](CO)[C@H]1c1ccc(-c2cccnc2)cc1)C(=O)CC1CC1 | -7
OC[C@@H]1[C@@H](c2ccc(C#CC3(O)CCCC3)cc2)[C@H]2CN(Cc3cccnc3)CCCCN12 | 3
CCCNC(=O)N1[C@@H](CO)[C@@H](c2ccccc2)[C@@H]1CNC(C)=O | -5
O=C(C1CCCCC1)N1C[C@H]2[C@@H](c3ccccc31)[C@@H](CO)N2Cc1ccccc1Cl | 10
C[C@@H]1CN([C@H](C)CO)C(=O)c2cc(NC(=O)NC3CCCCC3)ccc2O[C@@H]1CN(C)Cc1ccc(C(=O)O)cc1 | 4
CO[C@@H]1CN(C)C(=O)c2ccc(NS(=O)(=O)c3ccc(-c4ccccc4)cc3)cc2OC[C@H](C)NC[C@H]1C | 7
CO[C@@H]1CN(C)C(=O)c2cc(NC(C)=O)ccc2OC[C@@H](C)N(C(=O)c2ccccc2F)C[C@H]1C | -12
CCC(=O)N1CCCCN2[C@H](C1)[C@@H](c1ccc(C#Cc3cccnc3)cc1)[C@@H]2CO | -12

Other entries follow:
mol	Yeast UUG start
COc1ccc(C#Cc2ccc3c(c2)[C@@H]2[C@@H](CCN2C(=O)c2ccccc2F)[C@H](CO)N3)cc1	-2
CCC(=O)N1CCCCN2[C@@H](CO)[C@@H](c3ccc(/C=C/c4ccccc4)cc3)[C@@H]2C1	80
O=C(Nc1ccc(F)cc1)N1C[C@@H]2[C@H](c3ccccc31)[C@H](CO)N2C(=O)c1ccccc1	51
CCCC(=O)Nc1ccc2c(c1)OC[C@H](C)N(Cc1ccccc1F)C[C@@H](C)[C@H](OC)CN(C)C2=O	-2
CCCN1C[C@H](C)[C@@H](OC)CN(C)C(=O)c2cc(NC(=O)C3CC3)ccc2OC[C@H]1C	5
COc1ccc(S(=O)(=O)N2C[C@@H](O)COC[C@H]3O[C@@H](CC(=O)NCCCN4CCOCC4)CC[C@@H]32)cc1	-6
CO[C@@H]1CN(C)C(=O)c2cc(NS(=O)(=O)c3ccccc3)ccc2OC[C@H](C)N(Cc2cccnc2)C[C@H]1C	27
COc1ccc(CN2C[C@H](C)[C@@H](OC)CN(C)C(=O)c3cc(NC(=O)c4nc5ccccc5s4)ccc3OC[C@@H]2C)cc1	5
C[C@H]1CN([C@@H](C)CO)C(=O)Cc2cc(NC(=O)CCN3CCOCC3)ccc2O[C@H]1CN(C)C	2
O=C(C1CC1)N1C[C@@H]2[C@H](c3ccccc31)[C@@H](CO)N2C(=O)Nc1cccc(F)c1	4

Additional compounds
mol	Yeast UUG start
C[C@H](CO)N1C[C@H](C)[C@H](CN(C)C)Oc2ccc(NC(=O)Cc3ccccc3)cc2C1=O	-1
CCC(=O)N1CC[C@@H]2[C@H]1c1cc(-c3ccc(C#N)cc3)ccc1N(C)[C@H]2CO	7
O=C(C1CCCC1)N1CCCCN2[C@@H](CO)[C@@H](c3ccc(C#CC4(O)CCCC4)cc3)[C@@H]2C1	13
C[C@H]1CN([C@@H](C)CO)C(=O)c2cccc(N(C)C)c2O[C@@H]1CN(C)S(=O)(=O)c1ccc(F)cc1	14
CN1c2ccc(-c3ccc(F)cc3)cc2[C@@H]2[C@@H](CCN2C(=O)c2cccnc2)[C@H]1CO	-1
C[C@@H]1CN([C@@H](C)CO)C(=O)Cc2cc(NC(=O)CCC(F)(F)F)ccc2O[C@H]1CN(C)S(=O)(=O)c1ccccc1	13
CC1C=NC(S(=O)(=O)N2CC[C@H]3[C@@H](CO)N(C)c4ccc(C#Cc5cccnc5)cc4[C@H]32)=N1 (stereo not given in full)	6
O=C(CC(F)(F)F)N1C[C@@H]2[C@H](c3ccccc31)[C@H](CO)N2CC1CCOCC1	9
CO[C@H]1CN(C)C(=O)c2ccc(NS(=O)(=O)c3cn(C)cn3)cc2OC[C@@H](C)N(CCC(F)(F)F)C[C@H]1C	-5
C[C@@H]1CN([C@H](C)CO)C(=O)Cc2cc(NC(=O)CCC(F)(F)F)ccc2O[C@@H]1CN(C)Cc1ccc(C(=O)O)cc1	-22

New compounds follow.
mol	Yeast UUG start
C[C@H](CO)N1C[C@H](C)[C@H](CN(C)Cc2ccccc2C(=O)O)OCc2cnnn2CCCC1=O	-10
C[C@H]1CN([C@@H](C)CO)C(=O)Cc2cc(NC(=O)Nc3ccc(F)cc3)ccc2O[C@@H]1CN(C)S(C)(=O)=O	4
CCC(=O)Nc1ccc2c(c1)C(=O)N(C)C[C@H](OC)[C@@H](C)CN(Cc1cccc(F)c1)[C@H](C)CO2	3
O=C(NC1Cc2ccccc2C1)[C@@H]1[C@@H](CO)[C@@H]2Cn3c(cccc3=O)[C@@H]2N1C(=O)C1CC1	-6
COCC(=O)N1CCCCN2[C@H](C1)[C@@H](c1ccc(C#Cc3ccc(OC)cc3)cc1)[C@@H]2CO	24
CN1c2ccc(Br)cc2[C@H]2[C@H](CCN2C(=O)C2CCCCC2)[C@@H]1CO	22
COCC#Cc1ccc([C@H]2[C@@H](CO)N3CCCCN(Cc4cccnc4)C[C@H]23)cc1	5
CN(C)CC#Cc1ccc([C@H]2[C@@H](CO)N3CCCCN(C(=O)C4CCCC4)C[C@H]23)cc1	7
Cc1noc(C)c1NC(=O)Nc1ccc2c(c1)C(=O)N([C@@H](C)CO)C[C@@H](C)[C@@H](CN(C)Cc1ccc(Oc3ccccc3)cc1)O2	-5
O=S(=O)(c1ccccc1F)N1CCCCN2[C@H](CO)[C@H](c3ccc(-c4ccccc4)cc3)[C@@H]2C1	17

Two of these compounds in a different format.
Yeast UUG start,structure
4,O=C(C1CC1)N1C[C@@H]2[C@H](c3ccccc31)[C@@H](CO)N2C(=O)Nc1cccc(F)c1
-1,C[C@H](CO)N1C[C@H](C)[C@H](CN(C)C)Oc2ccc(NC(=O)Cc3ccccc3)cc2C1=O

(further entries)
mol	Yeast UUG start
CC(C)CC#Cc1ccc2c(c1)O[C@H](CN(C)Cc1ccccc1F)[C@H](C)CN([C@@H](C)CO)S2(=O)=O	14
COc1cccc(S(=O)(=O)N2CCCCN3[C@H](CO)[C@@H](c4ccc(-c5cccnc5)cc4)[C@H]3C2)c1	-5
O=C(C[C@H]1CC[C@@H]2[C@H](COC[C@H](O)CN2Cc2ccccc2F)O1)NCc1ccccc1F	1
Cc1cc(C(=O)Nc2cccc3c2O[C@H](CN(C)Cc2ccc(C(=O)O)cc2)[C@H](C)CN([C@@H](C)CO)C3=O)n(C)n1	-13
O=C(c1ccccc1)N1CC[C@@H]2[C@H]1c1cc(C#Cc3cccnc3)ccc1N[C@@H]2CO	-16

These rows are one share of the data (hit frequency here may not be typical).
